GALR2 agonist = GALR2 (human) receptor agonism | AID 803 | GALR2-expressing cells, agonist activation read-out | 140,000 tested, 0.48% active | O43603 | activation, %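 (tested at 5 µM)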;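 active = above mean plus 3 SD of all compounds, about 5% in these data, not always enough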;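 also: 0% = vehicle buffer wells and 100% = reference agonist at full effect; tested in CHO reporter cells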
Target sequence (O43603 whole entry, looked up): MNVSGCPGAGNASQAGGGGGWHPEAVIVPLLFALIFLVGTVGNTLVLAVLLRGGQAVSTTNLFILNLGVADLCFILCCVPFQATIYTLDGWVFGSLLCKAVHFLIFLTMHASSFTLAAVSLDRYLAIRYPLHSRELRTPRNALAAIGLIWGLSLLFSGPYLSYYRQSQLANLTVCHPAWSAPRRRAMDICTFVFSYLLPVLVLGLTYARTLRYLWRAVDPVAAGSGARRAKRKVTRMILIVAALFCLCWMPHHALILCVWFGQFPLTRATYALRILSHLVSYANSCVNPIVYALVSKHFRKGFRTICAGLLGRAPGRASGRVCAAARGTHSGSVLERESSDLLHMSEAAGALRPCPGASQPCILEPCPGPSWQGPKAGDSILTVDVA
RGS16-Gao HTS = RGS16-Galphao interaction regulator (human); bead-based flow cytometry RGS16-Galphao binding, fluorescence; actives lie on both sides; binding response (% of control), % at 10 µM; 220,000 tested, 0.38% active; AID 1441; O15492+P09471;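 active = below 25% or above 175%, edge rows of some plates excepted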;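 also: Galphao activated by GDP with aluminum fluoride before binding; 100% = wells without compound and 0% = beads without RGS; some results beyond the cut were filed as inactive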
Target sequence (O15492 whole entry, looked up): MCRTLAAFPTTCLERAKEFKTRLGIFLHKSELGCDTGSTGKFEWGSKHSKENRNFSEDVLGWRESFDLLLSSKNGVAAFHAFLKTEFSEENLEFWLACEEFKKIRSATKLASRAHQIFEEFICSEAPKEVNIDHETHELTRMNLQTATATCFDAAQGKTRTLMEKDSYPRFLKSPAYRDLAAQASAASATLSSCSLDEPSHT
Target sequence (P09471 whole entry, looked up): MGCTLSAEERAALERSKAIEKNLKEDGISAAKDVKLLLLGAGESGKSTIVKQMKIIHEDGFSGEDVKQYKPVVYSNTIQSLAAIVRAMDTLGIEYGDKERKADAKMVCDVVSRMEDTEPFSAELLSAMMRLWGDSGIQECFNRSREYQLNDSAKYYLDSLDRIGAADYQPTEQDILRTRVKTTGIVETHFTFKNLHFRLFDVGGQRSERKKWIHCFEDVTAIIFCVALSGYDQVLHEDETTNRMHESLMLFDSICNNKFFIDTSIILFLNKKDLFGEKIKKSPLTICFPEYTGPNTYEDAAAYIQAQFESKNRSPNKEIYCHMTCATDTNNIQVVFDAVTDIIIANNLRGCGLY
HSV augment = HSV replication enhancement | HSV replication augmentation in cells, fold increase | maximum fold increase | 220,000 tested, 0.005% active | AID 1956;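 active = peak rise of 1.5-fold or more in the series; tested in PC3 cells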;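 also: first round at 10 µM; read as green reporter fluorescence; hits show the peak of a series up to 25 µM; 1 = signal of infected wells without compound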
INS promoter inh = TRM-6 insulin promoter activity inhibition | TRM-6 cells (human fetal islet line), insulin promoter-eGFP reporter, imaging; reporter expression induced with tamoxifen | inhibition, % at 2 µM | AID 1273 | 130,000 tested, 0.9% active;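 active = inhibition above the mean plus 3 SD, with well images judged a real hit on visual review, cut at about 60% in these data, passing the limit was not always enough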
PKD1 kinase inh = inhibitors of human PKD1 kinase; PKD1 kinase fluorescence polarization assay; inhibition, %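 (about 10 µM by stock and volumes)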; 200,000 tested, 0.056% active;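 active = inhibition of 50% or more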;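 also: controls were vehicle for no effect and a reference inhibitor for full effect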
INS promoter inh cell count = recorded beside INS promoter inh, whose call it bears; normalized cell count, %; measured here: cell count, toxicity; reference of the scale not given here;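 cells exposed to compound for 48 h; stained nuclei by imaging scaled within each plate; lower means fewer cells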
HSV augment primary fold = also measured in HSV augment; calls as there; fold increase; compound at 10 µM; measured here: primary screen fold increase 10 uM; tested in PC3 cells;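 GFP signal in the first replicate; 1 = infected wells without compound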
Active calls of the source: *; i = inactive; / = no result given.

SMILES	GALR2 agonist	RGS16-Gao HTS	HSV augment	HSV augment primary fold	INS promoter inh	INS promoter inh cell count	PKD1 kinase inh
Cc1cc(C(=O)CSc2nnnn2-c2ccc(O)cc2)c(C)n1Cc1ccc2c(c1)OCO2	-0.6	100	i	1.1	9	100	-7
COc1cc(C(=O)Nc2nc(-c3ccc(C)cc3)cs2)ccc1OCC(=O)N1CCOCC1	0.6	14	i	0.97	-12	104	-8
CNC(=O)CSc1nnc(-c2ccco2)n1-c1ccccc1OC	-0.8	/	i	0.89	15	92	-11
O=C(NN=C1CCN(Cc2ccccc2)CC1)c1cc(Br)ccc1O	/	113	/	/	-7	88	-6
c1ccc2c(c1)OCC(c1nn3c(Cn4nnc5ccccc54)nnc3s1)O2 (configuration not stated)	-2.4	96	i	0.86	-290	88	2
Cc1ccc(C(=O)NN2C(=O)C3C(C2=O)C2C=CC3C23CC3)cc1 (configuration not stated)	/	84	i	0.88	-24	79	0
Cc1ccc2c(ccc[n+]2CC(=O)c2ccccc2)c1	-0.8	93	i	0.91	/	/	-14
CCCNc1nc(OC(C(F)(F)F)C(F)(F)F)nc(OC(C(F)(F)F)C(F)(F)F)n1	-2.4	102	i	1.2	/	/	-9
CCN1CCN(C(=O)NCc2ccccc2)CC1	/	92	i	0.94	/	/	/
O=C1NC(=S)S/C1=C/c1ccc(Oc2cnccn2)cc1	/	105	i	1	31	103	1

Full records, looked up by structure.
`Cc1ccc(C(=O)NN2C(=O)C3C(C2=O)C2C=CC3C23CC3)cc1` (configuration not stated) is listed with GALR2 agonist: /; RGS16-Gao HTS: 84; HSV augment: i; HSV augment primary fold: 0.88; INS promoter inh: -24; INS promoter inh cell count: 79; PKD1 kinase inh: 0
`O=C1NC(=S)S/C1=C/c1ccc(Oc2cnccn2)cc1` is listed with GALR2 agonist: /; RGS16-Gao HTS: 105; HSV augment: i; HSV augment primary fold: 1; INS promoter inh: 31; INS promoter inh cell count: 103; PKD1 kinase inh: 1
`Cc1ccc2c(ccc[n+]2CC(=O)c2ccccc2)c1` is listed with GALR2 agonist: -0.8; RGS16-Gao HTS: 93; HSV augment: i; HSV augment primary fold: 0.91; INS promoter inh: /; INS promoter inh cell count: /; PKD1 kinase inh: -14

Additional records.
SMILES	GALR2 agonist	RGS16-Gao HTS	HSV augment	HSV augment primary fold	INS promoter inh	INS promoter inh cell count	PKD1 kinase inh
Cc1csc(N(C)C(=O)CSc2nnc(COc3ccccc3C)o2)n1	-1.4	103	i	0.87	-3	92	2
COc1ccc(NC(=O)N[C@@H](CCSC)C(=O)O)cc1Cl	-2.4	102	i	0.93	8	70	-10
COc1ccccc1C(=O)Nc1ccc2c(c1)nc1n2CCN(Cc2ccccc2)C1	/	108	i	0.83	/	/	1
COc1ccccc1Oc1ccc(N/C=C/C(=O)c2ccc(C)o2)cc1	/	108	i	1	-24	84	-3
CC(C)C(C)NC(=O)COc1ccc(S(=O)(=O)N2CCOCC2)cc1[N+](=O)[O-] (configuration not stated)	-0.1	101	i	1	-21	68	-11
CNC(=O)c1csc(-c2ccc(C)cc2)n1	-1.2	102	i	0.98	-12	123	-8
CCCOc1ccc(C(=O)C(CCC(CNCC)C(=O)c2ccc(OCCC)cc2)CNCC)cc1 (configuration not stated)	25*	111	i	0.61	23	62	-2
O=c1c2c(nc3nc(COc4ccccc4)[nH]n13)CCC2	-0.3	100	i	0.86	-43	78	-12
CCOC(=O)c1c(C)oc2ccc(NS(=O)(=O)c3cccs3)cc12	-1.6	95	i	0.75	-53	95	-4
CC(=O)NNc1ncnc2c1cnn2-c1ccc(C)c(Cl)c1	/	104	i	0.97	4	178	2
Cc1ccc(C(=O)N2N=C3c4ccccc4S(=O)(=O)N3[C@H]2N(C)C)cc1	/	109	i	1	21	115	3
Brc1cc2[nH]cnc2c2ccccc12	-0.8	102	i	1	/	/	17
CC(C)N1CCC(N2CCN(Cc3ccc4nonc4c3)CC2CCO)CC1 (configuration not stated)	/	88	i	1	/	/	/
Brc1cc(Br)c2nc(-c3cccs3)ccc2c1	-1.4	92	i	1.1	-38	74	-14
COC(=O)c1ccc(CNC(=O)CSC2=NCCS2)cc1	/	109	i	0.95	9	148	-5
COc1cc(OC)cc(C(=O)NC(=S)Nc2ccc(Cl)c(C(=O)O)c2)c1	-2.4	108	i	0.92	26	116	-9
c1ccc(-c2nc(NCc3ccco3)c3ccccc3n2)nc1	5.3	101	i	0.36	/	/	-6
O=[N+]([O-])c1ccccc1N/N=C/c1c[nH]c2ccccc12	-2.5	99	i	0.84	40	120	-3
COCCNC(=O)Cn1cnc2sc(C)c(S(=O)(=O)N3CCC(C)CC3)c2c1=O	-2.2	104	i	0.97	29	170	-4
Cc1ccc(-n2c(SCC(N)=O)nc3c([nH]c4ccccc43)c2=O)cc1	-0.6	98	i	0.85	/	/	-16
Cc1nc(C(C)NC(=O)CCc2nnc(Cc3c[nH]c4ccccc34)o2)cs1 (configuration not stated)	/	87	i	1.1	/	/	-8
CC(C)(C)NC(=O)c1cccc2c1OC(C)(C)C2	-1.8	20*	i	0.97	31	133	-3
C=CCNC(=O)c1ccc(C(=O)c2ccccc2)cc1	-0.8	100	i	0.8	15	70	-14
CC(NC(=O)c1ccccc1F)c1ccccc1 (configuration not stated)	/	99	i	1	/	/	/
CC1=NOC(=O)/C1=C\c1ccccc1	/	100	i	1.1	/	/	/
CCCOc1cc(C)c(S(=O)(=O)n2ccc(C)n2)cc1C	-2.4	102	i	0.85	-74	68	-6
CCC(C(=O)NC1CCCCC1)n1c(SCc2ccc(F)cc2)nc2ccncc21 (configuration not stated)	0.1	104	i	0.93	-85	55	1
CCOC(=O)C1C(c2ccc(C)o2)NC(=O)NC1(O)C(F)(F)F (configuration not stated)	-1.5	98	/	/	/	/	5
C=CCN1C(=O)C(C)S/C1=N\S(=O)(=O)c1ccc(Cl)cc1 (configuration not stated)	-0.2	84	i	1	-55	101	-3
CS(=O)(=O)N1CCC(C(=O)Nc2ccc(Br)cc2F)CC1	-1.8	105	i	0.89	3	184	-5
CCOC(=O)C1CCN(C(=O)COc2cccc(C)c2)CC1	-0.1	98	i	0.84	38	132	-2
CN(CCCNC(=O)c1ccc(N2CCCC2=O)cc1)c1ccccc1	-0.3	97	i	0.95	38	102	-2
Nc1cc(N)nc(SCC(=O)c2ccc3c(c2)NC(=O)CO3)n1	/	93	i	0.99	/	/	-8
COCCNC(=O)c1cc2c(=O)n3cccc(C)c3nc2n(Cc2ccncc2)c1=N	2.8	102	i	0.91	-100	101	-1
O=c1c2ccccc2ncn1Cc1cccc2ccccc12	/	98	i	1	/	/	-6
CC(=O)c1cccc(CN2CCN(C3CCCCC3)C(CCO)C2)c1 (configuration not stated)	/	107	i	1	/	/	/
CC(=O)c1cc(C#N)c(Oc2cc(C)cc(C)c2)nc1C	-2.7	100	i	1.2	-21	123	7
CCOC(=O)N1CCC(NC(=O)c2cc(C(=O)Nc3ccc(F)cc3F)ccc2CO)CC1	-1.2	102	i	0.96	/	/	3
Cc1ccc(S(=O)(=O)N2CCCCC2C(=O)N2CCN(c3ccccc3F)CC2)cc1 (configuration not stated)	-0.6	101	i	1.4	-32	45	-5
CCN1C(=O)c2ccc(-c3nc4ccccc4c(=O)o3)cc2C1=O	/	99	/	/	/	/	5
CSc1sc(C(=O)N(C)C)c2c1S(=O)(=O)N(C)c1ccccc1-2	/	106	i	0.96	/	/	/
O=C(Cc1ccc(Cl)cc1)Nc1ccccc1C(=O)Nc1ccc(C(=O)O)cc1	/	93	i	0.88	27	147	-8
ClCc1csc(N/N=C/c2cccs2)n1	/	97	i	0.92	/	/	/
COc1ccc(/C=C/C(=O)c2ccccc2)c(OC)c1	/	102	i	1	/	/	0
O=C(NCCN1CCc2ccccc2C1)C1CC(=O)N(C2CCCC2)C1 (configuration not stated)	-0.7	95	i	0.94	-44	122	-11
Cc1ccc(S(=O)(=O)/N=S(/C)c2ccccc2)cc1 (configuration not stated)	-0.7	101	i	1.1	-11	50	-2
O=C(Nc1nc(-c2ccc(Cl)cc2Cl)cs1)C1CCCO1 (configuration not stated)	-1.1	49	i	0.92	-14	96	-3
Cc1nnc(NC(=O)C2CCCN(S(=O)(=O)Cc3ccccc3)C2)s1 (configuration not stated)	-1.0	103	i	1	-30	110	4
Cn1c(=O)c2c(nc(NCc3ccco3)n2CCc2ccccc2)n(C)c1=O	-2.3	104	i	0.86	/	/	-8
Cc1cc(C)cc(NC(=S)N(C)C)c1	/	104	i	0.75	/	/	/

Following part.
SMILES	GALR2 agonist	RGS16-Gao HTS	HSV augment	HSV augment primary fold	INS promoter inh	INS promoter inh cell count	PKD1 kinase inh
CN(C)C(=O)COC(=O)/C=C/c1cn(-c2ccccc2)nc1-c1cccs1	/	96	i	0.95	24	118	-3
CC(C)CNC(=O)Cn1nc(C(F)(F)F)c2c1CCCC2	/	99	i	0.94	/	/	3
CC1=CC(C)(C)Nc2cc(C)c(C)cc21	-0.9	98	i	1.2	/	/	-4
COc1cccc(NC(=O)CNC(=O)c2ccc(C)cc2)c1	/	101	i	0.73	/	/	-2
COCc1cc(C)nc(SCC(=O)Oc2ccc(Cl)cc2)c1C#N	/	104	i	0.99	-12	91	4
O=c1c2ccccc2c(C=Nc2ccc(O)cc2)c(O)n1-c1nccs1	/	108	i	0.81	/	/	/
COCCCNc1nc2nonc2nc1N1CCN(C2CCCC2)CC1	/	105	i	0.96	/	/	-4
Clc1ccc(Cc2nn3c(-c4ccncc4)nnc3s2)cc1	-2.3	/	/	/	-51	185	-2
CCn1c(=O)n(CC)c2cc(S(=O)(=O)N3CCOCC3)ccc21	-1.2	103	i	0.79	41	106	-7
COc1cc2c(cc1OC)CN(C(=O)c1cccc(S(=O)(=O)N(C)C)c1)CC2	/	91	i	1.3	/	/	/
O=C(Nc1ccc(S(=O)(=O)N2CCCC2)cc1)N1c2ccccc2Sc2ccccc21	-0.9	103	i	0.88	8	86	-2
Cc1nc2ccccc2n1CC(=O)N1CC(=O)Nc2ccccc21	-2.5	101	i	0.91	/	/	-3
COc1ccc(NC(=O)c2cccc(NC(=O)C3C4CC5OC(=O)C3C5C4)c2)c(OC)c1 (configuration not stated)	-1.5	98	i	0.93	-36	100	5
CCCCC(=O)Nc1nc(C)c(-c2csc(Nc3cc(Cl)ccc3OC)n2)s1	-0.6	101	i	1.1	-33	54	8
CCC(=O)N(CCC(c1ccco1)c1ccccc1OC)Cc1cccs1 (configuration not stated)	-2.2	59	i	0.84	21	154	0
CN1CCN(c2nc3c(c(=O)[nH]c(=O)n3C)n2CCSc2nnnn2-c2ccccc2)CC1	/	98	i	0.84	/	/	/
CCOC(=O)c1sc(NC(=O)COC(=O)Cn2cnc3ccccc32)c(C(=O)OCC)c1C	-0.6	96	/	/	/	/	3
Cc1cccc(N2CCN(C(=O)CCNS(=O)(=O)c3ccc4c(c3)CCC(=O)N4)CC2)c1C	-0.3	101	i	0.52	/	/	-2
O=C(CCCN1C(=O)c2cccnc2C1=O)Nc1ccccc1F	/	100	i	1.1	/	/	0
O=C(OCn1ncc(Cl)c(Cl)c1=O)c1ccccc1Cl	-3.0	100	i	0.49	-179	4	8

A different layout for some results above.
Each structure is followed by: GALR2 agonist	RGS16-Gao HTS	HSV augment	HSV augment primary fold	INS promoter inh	INS promoter inh cell count	PKD1 kinase inh
CCC(=O)N(CCC(c1ccco1)c1ccccc1OC)Cc1cccs1 (configuration not stated)
 : -2.2	59	i	0.84	21	154	0
Cc1cccc(N2CCN(C(=O)CCNS(=O)(=O)c3ccc4c(c3)CCC(=O)N4)CC2)c1C
 : -0.3	101	i	0.52	/	/	-2
O=C(Nc1ccc(S(=O)(=O)N2CCCC2)cc1)N1c2ccccc2Sc2ccccc21
 : -0.9	103	i	0.88	8	86	-2

Carrying on:
SMILES	GALR2 agonist	RGS16-Gao HTS	HSV augment	HSV augment primary fold	INS promoter inh	INS promoter inh cell count	PKD1 kinase inh
O=C(/C=C/c1ccc(S(=O)(=O)NCc2ccco2)cc1)N1CCN(c2ccccc2)CC1	/	100	i	0.97	31	133	1
O=C(NC(NC(=S)Nc1ccccc1)C(Cl)(Cl)Cl)c1cccc(Cl)c1 (configuration not stated)	-1.1	95	i	0.95	/	/	-10
O=C(O)c1ccc(N/N=C/c2ccc3c(c2)OCO3)cc1	/	109	i	0.86	43	90	-6
C=CCOc1cccc(C2C(C(=O)c3ccc(C)o3)=C(O)C(=O)N2CCN(C)C)c1 (configuration not stated)	-3.2	107	i	0.99	/	/	-2
CCCC(=O)Nc1nn(CCC)c2nc3ccccc3cc12	-1.4	101	i	0.6	/	/	13
Cc1ccc(NC(=O)Cn2cnc3cc([N+](=O)[O-])ccc3c2=O)c(Cl)c1	/	102	i	1.1	/	/	/
Cc1nc(SCC(=O)Nc2ccc(F)cc2)c2oc3ccccc3c2n1	-2.5	107	i	0.89	/	/	11
CCOC(=O)N1CCC(N2CCCC(CO)(Cc3ccccc3C)C2)CC1 (configuration not stated)	/	88	i	1	-81	102	1
CC1(C)N=C(SCC(=O)Nc2ccccc2)C(c2ccc(Cl)cc2)=N1	0.8	102	i	0.98	44	13	3
